Compound activity deposited in PubChem by several laboratories.
Mtb betalactam: beta-lactam sensitization of Mtb H37Rv, H37Rv. M. tuberculosis H37Rv growth with meropenem, percent inhibition; hits of this screen are not shown here. inhibition, % at 25 µM. 330,000 tested, 0.27% active. AID 434955, 2010;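 active means about 74% or more and at least 40 points above the plate without the antibiotic, then above 30% in a dose series; inconclusive means first-round hits that could not be retested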;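 further: growth measured after seven days incubation then overnight dye step; 0% = bacteria only wells and 100% = bacteria with antibiotic; twin plates without the antibiotic show which effects depend on it; some results filed as inactive read as strong as hits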
Mtb growth: M. tuberculosis H37Rv growth inhibitors, H37Rv strain (AID 1626); M. tuberculosis H37Rv growth inhibition; higher % means a stronger effect; one-dose inhibition, % at 10 µM; IC50 in µM for titrated hits; 220,000 tested, 0.95% active;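 active means confirmed in a dose series; inconclusive means inhibition above 80% but not taken into the dose series; inactive means below 80% or under 30% at every dose of the series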;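 further: bacteria incubated seven days before Alamar blue readout; 0% = bacteria only wells and 100% = bacteria with antibiotic wells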
RecA splice inh: Mtb RecA intein splicing inhibitors, primary screen, biochemical, fluorescence, HTS; inhibition, %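 (about 9 µM by stock and volumes)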; cell-free RecA intein splicing; Protein RecA (Mycobacterium tuberculosis (strain ATCC 25618 / H37Rv)), P9WHJ3; 290,000 tested, 0.75% active; in the data active means inhibition above about 30%; inconclusive means no clear call, values can overlap the other calls;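 further: 0% = vehicle wells and 100% = reference inhibitor control wells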
Target sequence (P9WHJ3 whole entry, looked up, canonical isoform): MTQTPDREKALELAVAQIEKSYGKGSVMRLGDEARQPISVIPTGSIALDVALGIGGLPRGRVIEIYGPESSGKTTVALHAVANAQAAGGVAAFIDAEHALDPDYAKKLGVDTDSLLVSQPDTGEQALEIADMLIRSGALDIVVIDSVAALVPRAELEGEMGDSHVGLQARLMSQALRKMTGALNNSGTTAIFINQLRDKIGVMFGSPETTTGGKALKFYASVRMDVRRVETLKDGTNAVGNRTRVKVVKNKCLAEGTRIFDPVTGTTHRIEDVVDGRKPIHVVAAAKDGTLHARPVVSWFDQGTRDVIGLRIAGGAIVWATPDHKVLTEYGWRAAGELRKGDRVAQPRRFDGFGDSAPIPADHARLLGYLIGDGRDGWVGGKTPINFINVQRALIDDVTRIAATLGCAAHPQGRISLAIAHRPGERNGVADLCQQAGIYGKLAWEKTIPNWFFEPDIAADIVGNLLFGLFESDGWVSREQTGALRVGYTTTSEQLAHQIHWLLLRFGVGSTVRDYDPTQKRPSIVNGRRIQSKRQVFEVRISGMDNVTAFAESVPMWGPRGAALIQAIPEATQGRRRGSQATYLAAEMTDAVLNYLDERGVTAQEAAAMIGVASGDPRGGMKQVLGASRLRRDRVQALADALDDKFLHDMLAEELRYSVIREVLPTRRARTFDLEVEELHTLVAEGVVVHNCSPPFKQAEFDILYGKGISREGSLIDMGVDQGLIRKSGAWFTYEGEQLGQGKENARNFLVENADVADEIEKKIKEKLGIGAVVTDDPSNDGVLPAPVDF
YopH inh: YopH tyrosine phosphatase inhibitors, primary screen, biochemical, fluorescence Ex485/Em525. YopH tyrosine phosphatase [Yersinia enterocolitica]. inhibition, %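 (about 10 µM by stock and volumes)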. 140,000 tested, 0.16% active. AID 898, 2007;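 active means inhibition of 50% or more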;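 further: controls were vehicle for no effect and minimum signal wells for full effect; inactives centre near -20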
Arbovirus inh: antivirals against arbovirus infection, primary screen, cell-based, full library, 10K replicate subset. 200,000 tested, 0.37% active. arbovirus infection cell-based antiviral screen. inhibition, % at 10 µM. AID 1251, 2008;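 active means inhibition from about 30%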;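 further: bluetongue infection of BSR cells; cell survival read as ATP light after 72 h; 0% = infected wells without compound and 100% = uninfected wells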
Arbovirus inh repeat: recorded beside Arbovirus inh, whose call it bears; inhibition, %; measured here: 10K subset replicate screen; many hits read low in the repeat;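 first of two repeat runs on a subset; 0% = infected and 100% = uninfected wells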
Numbers without * were called inactive; ? = inconclusive; / = no result given. An excerpt (hit frequency here may not be typical).

Start of the data: the first 2 records as a preview:
SMILES | Mtb betalactam | Mtb growth | RecA splice inh | YopH inh | Arbovirus inh | others
C=CCN1C=C2C(=O)C(C)(OC(=O)CCC(=O)OC)C(=O)C(Br)=C2C=C1c1ccc(OC)cc1 (stereo not given) | -6 | 16% | -9.4 | / | /
CC(C)(C)c1nc(SCC(=O)N2CC(=O)Nc3ccccc32)c2ccccc2n1 | -6 | -7% | 0.8 | / | 9

The whole of this part, from the first entry:
SMILES | Mtb betalactam | Mtb growth | RecA splice inh | YopH inh | Arbovirus inh | others
C=CCN1C=C2C(=O)C(C)(OC(=O)CCC(=O)OC)C(=O)C(Br)=C2C=C1c1ccc(OC)cc1 (stereo not given) | -6 | 16% | -9.4 | / | /
CC(C)(C)c1nc(SCC(=O)N2CC(=O)Nc3ccccc32)c2ccccc2n1 | -6 | -7% | 0.8 | / | 9
O=C(NCC(=O)N1CCN(c2ncc(C(F)(F)F)cc2Cl)CC1)c1ccc(Br)o1 | 86 | / | -3.4 | / | /
CCOC(=O)Nc1ccc2c(CNC(C)c3ccccc3OC)cc(=O)oc2c1 (stereo not given) | 4 | / | 1.6 | / | /
Cc1ccc[n+](/C(=C\C(=C=[N-])C#N)C(=O)c2ccc(Cl)cc2)c1 | 2 | -1% | 0.2 | / | 5
COc1cccc(NC(=S)N2CCC(N(C)CC3CCCO3)CC2)c1 (stereo not given) | 1 | 0% | -3.9 | -21 | 4
CCc1cc(=O)oc2c(CNCc3ccc(OC)cc3OC)c(O)c(Cl)cc12 | 1 | / | -22 | / | /
COc1c(C)cc(Br)cc1C(=O)Nc1ccc(S(N)(=O)=O)cc1 | -3 | 3% | / | / | 1
Cc1ccc2c(Cl)c(C(=O)N/N=C/c3cccn3C)sc2c1 | 3 | 6% | -1.5 | 11 | -6
Fc1ccccc1-c1nc(NCc2ccccc2)c2ccccc2n1 | -8 | -9% | 13 | / | /
Cc1cccc(OCC(=O)N/N=C\c2cccn2C)c1C | 4 | 2% | -0.2 | / | 1
COCc1cc(C(C)=O)ccc1OCC(=O)Nc1ccc(NC(C)=O)cc1 | -5 | 6% | -3.7 | / | 4
COC(=O)NC1CCC(CC2CCC(NC(=O)OC)CC2)CC1 (stereo not given) | 2 | -12% | / | 9 | 7
CC1(C)CC(=O)C/C(=N\NC(=O)c2cccs2)C1 | -4 | 2% | -2.3 | -16 | 3
CNC(=O)CSc1nnnn1-c1ccc(C)cc1C | -14 | -10% | 0.5 | -3 | -2
O=c1c2ccccc2nc(SCc2nnc(-c3ccccc3)o2)n1-c1ccccc1 | 3 | 1% | 7.2 | / | 5 | Arbovirus inh repeat=-7
COC(=O)c1ccccc1NC(=O)N1c2ccccc2Sc2ccccc21 | 0 | 11% | 15 | 4 | 14
CCn1c(COc2ccccc2)nnc1SCC(=O)Nc1ccc(N2CCOCC2)cc1 | -6 | / | 0.4 | / | /
O=C1CS/C(=N\NC(=O)c2ccccc2)N1 | 3 | 1% | -1.7 | / | /
CC(OC(=O)c1ccc(Cl)nc1)C(=O)NCc1ccc2c(c1)OCO2 (stereo not given) | -4 | / | 0.1 | / | /
COC(=O)C1=C(C)N(C)C(=O)NC1c1ccc(O)c(OC)c1 (stereo not given) | -4 | -4% | -3.5 | -25 | 11 | Arbovirus inh repeat=1
CCC(C)(C)c1ccc(OCCCC[n+]2cccc(C)c2C)c(C(C)(C)CC)c1 | 100 | ? | 18 | / | /
COc1ccc(/C=N/Nc2ncnc3sc4c(c23)CCCC4)cc1OC | -1 | 0% | -0.8 | -37 | -11
COc1cc(OC)cc(C(=O)NC(C)c2ccc(Br)cc2)c1 (stereo not given) | 4 | 10% | -1.9 | / | -20
COc1ccc(CCN)cc1O | 0 | -12% | -3.5 | / | /
CC(=O)NC(CC(=O)N(C)C1CCCCC1)c1ccccc1 (stereo not given) | -4 | / | -1.6 | / | /
CON1C(=O)C(=O)N(OC)C(C)(C)C1(C)C | -7 | -5% | -3.0 | -24 | -12
CN(Cc1ccncn1)C(=O)C1CCC(=O)N(Cc2cccc(C(F)(F)F)c2)C1 (stereo not given) | ? | / | 6.5 | / | /
CC1CN(S(=O)(=O)c2ccc(NC(=O)c3ccco3)cc2)CC(C)O1 (stereo not given) | -2 | -8% | 0.6 | 0 | 3
Cc1ccc(S(=O)(=O)N(CC(=O)N2CCOCC2)CC(=O)N2CCOCC2)cc1 | -3 | 8% | 2.2 | -27 | 1
COc1ccccc1C(=O)NCC(=O)OCc1csc(-c2ccccc2)n1 | -4 | 3% | 2.1 | -40 | -2
O=C(/C=C/c1ccco1)Nc1nc(-c2ccccc2)cs1 | 63 | 10% | 0.9 | -20 | 11
CC(=O)c1c(C)[nH]c(C(=O)Nc2ccccn2)c1C | -6 | / | -3.8 | / | /
CCN(CC)C(=O)NC(c1ccc(C)c(F)c1)C(Cl)(Cl)Cl (stereo not given) | 1 | 2% | 2.3 | -4 | 13
CCCN(CC1CC1)C(=O)COC(=O)c1ccc2c(c1)C(=O)N(c1ccc(OCC)cc1)C2=O | 94 | >100µM* | -2.7 | / | 16
COC(=O)C1=C(c2ccc(S(C)(=O)=O)cc2)C[C@@H]2CC[C@H]1N2C(=O)NCCNC(C)=O | -5 | -1% | 0.8 | / | /
Fc1cccc(Nc2nc(-c3ccncc3)nc3ccccc23)c1 | 0 | 2% | -12 | -12 | 7
N#Cc1ccccc1NC(=O)CSc1ccc([N+](=O)[O-])cn1 | 42 | 14% | 2.5 | / | -2
Cc1cc(N/N=C(/CCC(=O)O)C(=O)O)nc2ccccc12 | -9 | -8% | 0.1 | -22 | -3
CC(C)CCOP(=O)(c1ccccc1)c1ccccc1 | 3 | 1% | 6.4 | -21 | -6

Of the compounds above, ten have an aryl methoxy group.
SMILES | Mtb betalactam | Mtb growth | RecA splice inh | YopH inh | Arbovirus inh | others
C=CCN1C=C2C(=O)C(C)(OC(=O)CCC(=O)OC)C(=O)C(Br)=C2C=C1c1ccc(OC)cc1 (stereo not given) | -6 | 16% | -9.4 | / | /
CCOC(=O)Nc1ccc2c(CNC(C)c3ccccc3OC)cc(=O)oc2c1 (stereo not given) | 4 | / | 1.6 | / | /
COc1cccc(NC(=S)N2CCC(N(C)CC3CCCO3)CC2)c1 (stereo not given) | 1 | 0% | -3.9 | -21 | 4
CCc1cc(=O)oc2c(CNCc3ccc(OC)cc3OC)c(O)c(Cl)cc12 | 1 | / | -22 | / | /
COc1c(C)cc(Br)cc1C(=O)Nc1ccc(S(N)(=O)=O)cc1 | -3 | 3% | / | / | 1
COC(=O)C1=C(C)N(C)C(=O)NC1c1ccc(O)c(OC)c1 (stereo not given) | -4 | -4% | -3.5 | -25 | 11 | Arbovirus inh repeat=1
COc1ccc(/C=N/Nc2ncnc3sc4c(c23)CCCC4)cc1OC | -1 | 0% | -0.8 | -37 | -11
COc1cc(OC)cc(C(=O)NC(C)c2ccc(Br)cc2)c1 (stereo not given) | 4 | 10% | -1.9 | / | -20
COc1ccc(CCN)cc1O | 0 | -12% | -3.5 | / | /
COc1ccccc1C(=O)NCC(=O)OCc1csc(-c2ccccc2)n1 | -4 | 3% | 2.1 | -40 | -2

(further entries)
SMILES | Mtb betalactam | Mtb growth | RecA splice inh | YopH inh | Arbovirus inh | others
Cn1c(N)c(S(=O)(=O)NCc2ccc(F)cc2)c(=O)n(C)c1=O | -3 | / | -0.8 | / | /
O=C(NCC1CCCO1)Nc1cc(Cl)cc(Cl)c1 (stereo not given) | -2 | 5% | 1.8 | / | 9
Brc1ccc(-c2ncc3ccccn23)cc1 | 5 | -2% | 2.4 | / | /
CCN(CCCNC(=O)c1ccc2c(c1)NC(=O)CN2C)c1cccc(C)c1 | 72 | / | -4.9 | / | /
Cn1nc(C(=O)Nc2ccc3c(c2)OCO3)c2ccccc2c1=O | 3 | / | -1.9 | / | /
COCCn1c(C)cc(C(=O)COc2nc3ccccc3nc2C)c1C | 0 | -5% | -1.5 | -23 | 6
CCN(CC)S(=O)(=O)c1ccc2c(c1)nc(SCC(=O)N(C)C1CCS(=O)(=O)C1)n2CC (stereo not given) | -6 | / | -1.7 | / | /
CS(=O)(=O)Nc1ccccc1N=C(c1ccccc1)c1ccccc1 | -14 | / | -2.0 | / | /
COc1ccc(Oc2nc(-c3ccccc3)ncc2C(=O)O)cc1 | -2 | 5% | -1.0 | / | 4
COC(=O)c1ccccc1NC(=O)CCCn1nc([N+](=O)[O-])cc1C | -4 | 3% | 0.3 | / | 3
CC(C)Oc1ccc(CNC(=O)CCC(=O)N2CCSc3ccccc32)cc1 | -5 | / | 2.4 | / | /
Cc1ccc2nc(-c3ccc(NC(=O)C(C)N4C(=O)c5ccccc5C4=O)cc3)sc2c1 (stereo not given) | 1 | 1% | -0.2 | 10 | -1
CCOC(=O)c1c(NC(=O)c2ccccc2C)sc2c1CC(C)(C)OC2 | 9 | 17% | -1.2 | -37 | -6
Cc1cc(C)n(CC(=O)c2cccc(N)c2)n1 | -7 | 4% | -1.5 | / | -1
COCCCNC(=O)C(F)(F)C(F)(F)C(=O)NCCCOC | -7 | -7% | -3.2 | -29 | 2
CCOC(=O)CNC(=O)C1c2cc(OC)c(OC)cc2C(=O)N(C)C1c1ccccc1F (stereo not given) | -5 | -4% | / | -4 | 5
O=C(Nn1c(SCc2ccccc2F)nc2ccsc2c1=O)c1ccccc1 | 6 | 3% | 12 | -2 | 22
COC(=O)c1ccc(COc2ncnc3ccccc23)o1 | 7 | / | -0.1 | / | /
COc1ccc(C2=NOC(C(=O)NCc3ccccc3)C2)cc1 (stereo not given) | 3 | / | -3.2 | -48 | -15
CCOC(=O)c1sc(NC(=O)c2ccc(OC(C)=O)cc2)nc1C | 74 | 0% | -2.2 | / | -28
CCOC(=O)/C(C#N)=C\c1cccnc1 | 2 | -6% | 1.0 | / | 17
CCC(=O)c1cn(CC(=O)NCc2cccnc2)c2ccccc12 | 5 | -6% | 0.8 | -22 | 10
CCCCNC(=O)/C=C/c1ccc(OC)c(Br)c1 | 30 | -2% | 2.7 | -27 | -7
COC(=O)c1ccc(C(=O)OC)c(NC(=S)N2CCC(N3CCCCC3)CC2)c1 | 1 | 4% | -2.9 | / | 3
Cc1nc(C(=O)N2CCCC(C(=O)c3ccc(Cl)cc3)C2)cs1 (stereo not given) | -4 | -1% | 0.0 | / | /
OCCC1CN(Cc2ccc(F)cc2Cl)CCN1CCc1ccccc1 (stereo not given) | 0 | / | -0.6 | / | /
CCCCn1c(N)c(N(CC(C)C)C(=O)c2cnccn2)c(=O)[nH]c1=O | -11 | / | -0.5 | / | /
C=CCN=C(NC#N)SCC(=O)NCc1ccccc1 | 23 | -4% | -0.8 | -21 | -2
CO/N=C\Cc1oc(=O)c(NC(=O)c2ccccc2)cc1C(=O)OC | 5 | -4% | -5.0 | -45 | 5
COc1ccc(/C=C(/Sc2nnc(-c3ccc(Cl)cc3)o2)C(=O)O)cc1 | 0 | 5% | 0.2 | / | -5
CCc1ccc(N2C(=O)NC(=O)/C(=C/c3ccsc3)C2=O)cc1 | -5 | -1% | -0.5 | / | 2
C=CCn1c(COc2ccc(Cl)cc2)nnc1SCc1ccc(C#N)cc1 | 53 | -8% | 1.6 | -53 | 3
O=C(CSc1nnc(NC(=O)C2CC2)s1)Nc1ccc(F)cc1 | -1 | -11% | 1.2 | -18 | 11
CCCn1c(NC(=O)c2cccc(S(=O)(=O)N3CCCC3)c2)nc2ccccc21 | 3 | 29% | 0.7 | -30 | -24
CN(C)S(=O)(=O)N1CCC(Oc2ccc(C(=O)NCCc3cscn3)cc2)CC1 | 1 | / | -0.4 | / | /
COc1ccc(C2C(C(N)=O)=C(C)Nc3nc(-c4cccc(Cl)c4)nn32)cc1OC (stereo not given) | 4 | 6% | -0.3 | -13 | 7
Cc1ccc(S(=O)(=O)N2CCCCCC2)cc1C(=O)Nc1cccnc1 | 0 | / | -1.5 | / | /
